AID504770 – E. coli YBA685 growth inhibition, screen for V. cholerae RctB inhibitors; z-score (no concentration beside the values); hit rate 0.27% among 130,000; E. coli YBA685 rctB-dependent plasmid, OD600 growth, 3 h; hits give low values;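 active = z-score under -2 on both plates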;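 also: wells of about 30 µL received 100 nL stock; score is relative to mean and SD of the test wells; the first replicate is given; strong numbers were not always called active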
CapD inh – CapD enzyme inhibition; z-score (test concentration not listed); purified CapD enzyme, fluorescence intensity read-out; hits give low values; some hits fall short of the stated cut; hit rate 0.23% among 140,000;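 active = z-score under -4 in either of two replicates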;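 also: stock transfer was 100 nL into about 40 µL; score is relative to mean and spread of the plate; one replicate is shown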
* marks the source's active call; other numbers are inactive results; i = inactive; . = not tested or not shown; & = joins results of further samples.

Below each SMILES – AID504770 | CapD inh
> CCOC(=O)C1=C(C)NC2=C(C(=O)c3ccccc32)C1c1cc(Br)c(OC)c(OC)c1 (stereo not drawn)
 : . | -0.11
> Cc1nc(-c2ccc(S(=O)(=O)NCC3CCN(C(=O)OC(C)(C)C)CC3)s2)cs1
 : 1 | 2.1
> CCN1CCN(c2ncnc3sc(C(=O)Nc4cc(Cl)ccc4OC)c(C)c23)CC1
 : . | -0.76
> CCC1(c2ccc(N)cc2)CCC(=O)NC1=O (stereo not drawn)
 : 0.05 | 1.1&1.7
> COC1OC(COC(C)=O)C(OC(C)=O)C(C#N)(C#N)C1OC(C)=O (stereo not drawn)
 : -0.1 | 0.51
> O=C(c1ccccc1)c1cccn1CC(=O)N1CCN(c2ccc(F)cc2)CC1
 : 0.75 | -0.62
> COc1ccnc(-n2cccc2/C=N/OCc2c(F)cccc2Cl)c1C#N
 : . | -0.48
> CC(=O)Nc1ccc(NC(=O)CSc2nc3ccccc3o2)cc1
 : . | 0.32
> CCCCc1ccc(NC(=O)N2CCN(c3cc(C)nc4ccccc34)CC2)c(C)c1
 : 0.2 | 0.74
> O=C(Nc1ccc2oc(-c3ccccc3Cl)nc2c1)c1ncn[nH]1
 : -0.55 | 11
> O=C(CN1CCCCC1)Nc1cccc2nsnc12
 : -0.25 | .
> O=C(CCCn1c(=O)c2cccn2c2ccccc21)NC1CCCC1
 : 1.1 | 0.93
> Cc1ccc2onc(CNC(=O)N3C(C)CCCC3C)c2c1 (stereo not drawn)
 : 0.25 | -0.52
> O=C(CN1CCN(S(=O)(=O)c2ccc(Br)s2)CC1)N1CCCc2ccccc21
 : 0.25 | .
> O=C(OCC(F)F)N1CCN(c2ccc(C(F)(F)F)cn2)CC1
 : . | 3.6
> CCC(=O)Nc1nc2c(s1)C(=O)CC(c1ccccc1)C2 (stereo not drawn)
 : -0.4 | -0.46
> CC(C)(C)c1nc(N=C(N)N)sc1Br
 : -0.45 | 0.13
> COc1ccc(NC(=O)NNc2cc(N3CCOCC3)nc(N3CCOCC3)n2)cc1
 : -0.8 | 0.14
> N#Cc1c(NC(=O)CCn2cnnn2)sc2c1CCCC2
 : 2.1 | -0.15
> Cc1cc(C(C)(C)C)c(O)c(C)c1CC1=NCCN1
 : 0.1 | -0.085&0.04
> CCCn1c(SCc2ccccc2C#N)n[nH]c1=O
 : 0.3 | .
> N#Cc1ccc(NC(=O)CSc2ncn[nH]2)cc1
 : -1.1 | 0.29
> O=C1C=CC(=O)c2c(Cl)ccc(Cl)c21
 : -2* | -0.76
> CCOC(=O)c1cnc2cc(C(F)(F)F)ccc2c1N(C)Cc1ccccc1
 : 0.3 | 0.11
> CCOc1ccccc1C1NC(=O)N(C)C(C)=C1C(=O)OCCOc1ccccc1 (stereo not drawn)
 : . | -0.12
> O=C(CSc1cccc[n+]1[O-])c1cc2c3c(c1)CC(=O)N3CCC2
 : 0.1 | .
> CCCOC(=O)c1ccc(NC(=O)C(F)(F)F)cc1
 : -0.8 | 0.11
> Cc1nn(CC(=O)N(C)C2CCCCC2)c(=S)n1C
 : 0.15 | .
> C(=C\c1ccccc1)/CNCCCN1CCOCC1
 : -0.45 | .
> CC(NC(=O)c1ccc(C(C)(C)C)cc1)C(N)=O (stereo not drawn)
 : -0.45 | .
> O=C(N/N=C/c1ccncc1)c1cc2ccccc2cc1O
 : . | -2.5
> Cn1c(=O)n(C)c2cc(/C=C3/NC(=O)NC3=O)ccc21
 : 0.15 | 0.49
> CC(C)Cn1c(=S)[nH]c2cc(C(=O)NCc3ccco3)ccc2c1=O
 : 1.8 | .
> CSc1nc(N)n2nc(C(C)(C)C)cc2n1
 : -0.25 | -0.21
> Cc1csc(-c2coc3c(C)c(O)c(CN4CCN(CCO)CC4)cc3c2=O)n1
 : -0.2 | .
> COc1ccc(Br)cc1CNc1ccccc1
 : -0.8 | -0.04
> COc1ccc(OC)c(C2NC(=O)NC(C)=C2C(=O)Nc2ccc(Br)cc2)c1 (stereo not drawn)
 : . | -0.14
> CCOC(=O)/C(C#N)=C/Nc1nc2ccc(C(=O)OCC)cc2s1
 : . | 16
> c1csc(-c2cn3c(n2)SCC3)c1
 : -0.2 | 18
> CN(CC(=O)Nc1ccc2c(c1)OCCCO2)Cc1ccc2c(c1)OCCO2
 : -0.2 | .
> Cc1sc2nc(Nc3ccc(S(N)(=O)=O)cc3)sc(=O)c2c1C
 : 0.8 | -0.78
> COc1ccc(-c2nc3ccccc3c(=O)n2NC(=O)COc2ccc(Cl)cc2Cl)cc1OC
 : . | 0.36
> Cc1cc(NC(=O)CSc2nc(C3CCCCC3)nc3sc(C)c(C)c23)no1
 : -0.45 | .
> COC(=O)COc1nsnc1N1CCOCC1
 : . | -2.5
> Cn1c(=O)oc2cc(S(=O)(=O)N3CCC(C(=O)N4CCCCC4)CC3)ccc21
 : -0.1 | -0.49
> COc1cc(CC(=O)OCC(=O)C(C)(C)C)cc(OC)c1OC
 : 1.1 | .
> Nc1ccc(S(=O)(=O)C(F)F)cc1
 : 0.25 | .
> COc1cccc(NC(=O)c2cnn(C)c2-n2cccc2)c1
 : 0.2 | 0.69
> COc1ccc(C2C(C#N)=C(SCC(=O)NCc3ccc4c(c3)OCO4)NC3=C2C(=O)CC(C)(C)C3)cc1 (stereo not drawn)
 : 1.4 | .
> Cc1ccc(CNCC(O)COC2CCCc3ccccc32)n1C (stereo not drawn)
 : -0.55 | .
> COc1ccccc1NC(=O)c1cc(Cl)nnc1Cl
 : 0.5 | 0.11
> Cc1ccc(N/C(SCc2ccccc2)=C(/C(Cl)=C(Cl)Cl)[N+](=O)[O-])c(C)c1
 : . | -1.2
> CN(C(=O)COn1ccc2ccc(S(C)(=O)=O)cc21)c1ccccc1
 : . | 8.1
> COc1cc(C2Nc3cccc4cccc(c34)N2)ccc1O
 : . | 33
> Cc1cccc(-n2nc3c(c2NC(=O)C2CC2)CSC3)c1
 : -0.2 | 0.01
> CC1(C)OC2OC(C(=O)Nc3ccc(Cl)cc3)C3OC(C)(C)OC3C2O1 (stereo not drawn)
 : . | -0.4
> CN(C)S(=O)(=O)c1ccc(C(=O)Nc2ncnc3sccc23)cc1
 : -0.35 | .
> COC(=O)c1sc(S(=O)(=O)Nc2cccc(C(F)(F)F)c2)c(C(=O)OC)c1C
 : -1.4 | .
> COc1cc(NC(=O)c2cc([N+](=O)[O-])ccc2N2CCCCCC2)c2ncccc2c1
 : . | -0.33
> CCOC(=O)c1cc(C(=O)NN)c(=O)[nH]c1C
 : -0.45 | 0.18

(cont.)
structure	AID504770	CapD inh
O=C1/C(=C/c2ccc(-c3ccc([N+](=O)[O-])cc3)o2)C=C(c2ccccc2)N1c1cccc(Br)c1	.	-0.24
CCOc1cc(C)cc2oc(=O)cc(CC)c12	0.95	9.9
C[C@H]1O[C@@H](O[C@H]2[C@@H](O)C[C@H](O[C@H]3[C@@H](O)C[C@H](O[C@H]4CC[C@]5(C)C6CC[C@]7(C)[C@@H](C8=CC(=O)OC8)CC[C@]7(O)C6CC[C@@H]5C4)O[C@@H]3C)O[C@@H]2C)C[C@H](O)[C@@H]1O (stereo partly drawn)	0.2	1.4
CCN(CC)CCc1nnc(NC(=O)c2ccccc2)s1	-1.1	.
O=C(O)CCC(=O)Nc1ccccc1Cl	0.6	.
CCc1ccc(NC(=O)CSc2nc3cc(C(=O)NCC4CCCO4)ccc3c(=O)n2Cc2ccco2)cc1 (stereo not drawn)	.	0.31
CCOC(=O)CC1OC(=O)c2cc3c(cc21)C(=O)OC3CC(=O)OCC (stereo not drawn)	3.8	-0.23
O=C(CN1C(=O)c2cccnc2Sc2ccccc21)N1CCC2(CC1)OCCO2	-0.2	0.055
COc1ccc(C2C(=O)c3ccccc3C2=O)cc1OC	1.1	-0.7
O=C(c1cnn(-c2ccc(C(F)(F)F)cn2)c1)c1ccccc1O	0.45	.
N#Cc1nncn1-c1nc(-c2cccs2)nc2scc(-c3ccccc3)c12	0.2	.
CN(C)S(=O)(=O)c1ccc(C(=O)NCc2ccccc2CN2CCOCC2)cc1	0.45	.
O=C(Cc1ccccc1)Nc1ccc(S(=O)(=O)N2CCCCC2)cc1	0.5	0.33
COCC(=O)Oc1c(Sc2ccc(C)cc2)c(C)nn1-c1ccccc1	-1.5	0.18
COC(=O)c1ccc(-c2nc(OCc3ccc(Cl)cc3)c(C)s2)cc1	.	28
COc1ccc(N2CCN(C(CNC(=O)C3CCCCC3)c3cccnc3)CC2)cc1 (stereo not drawn)	-0.3	0.08
OCc1c[nH]c(=S)n1Cc1ccccc1	2.5	-1.6
Cn1c(=NC(=O)C2CCCCC2)sc2ccccc21	-0.3	i
Nc1nc(-c2ccccc2)c(-c2nc3ccccc3[nH]2)s1	0.3	3
Cc1ccc(C(=O)NCCO)cc1	0.05	-0.29
N#Cc1cnn(C(=O)c2ccc(Cl)cc2)c1C1CC1	-1.1	-0.56
Cc1ccc(S(=O)(=O)Nc2ccccc2Oc2ccc(Cl)cc2Cl)cc1	.	-0.005
CC1CCCCC1NC(=O)NC(=O)CSc1ccc2c(c1)OCCO2 (stereo not drawn)	-0.25	.
COC(=O)C1=C(NC(=O)C2CCCCC2)CCS1	0.05	i
CCOC(=O)CSc1cc(OC)c([N+](=O)[O-])cc1OC	.	-0.82

2 consecutive entries from above, for reference:
structure	AID504770	CapD inh
O=C(CN1C(=O)c2cccnc2Sc2ccccc21)N1CCC2(CC1)OCCO2	-0.2	0.055
COc1ccc(C2C(=O)c3ccccc3C2=O)cc1OC	1.1	-0.7

(continued)
structure	AID504770	CapD inh
CN(C)c1ccc(C(=O)N2CCCC2c2nnc(SCc3ccccc3)n2C)cc1 (stereo not drawn)	-0.55	.
CCOc1ccccc1NC(=O)COC(=O)C1CC1C (stereo not drawn)	-0.95	-0.65
CCC(=O)N/N=C(\C)c1ccc(Oc2ccccc2)cc1	.	-0.12
CCOC(=O)c1c(NC(=O)CCc2ccccc2)sc(C(=O)Nc2ccc(C)c(Cl)c2)c1C	.	-0.055
O=C(COc1ccccc1)Nc1c2c(nn1-c1ccc(F)cc1)CSC2	-0.6	0.11
CC(NCC(=O)NN)c1ccccc1 (stereo not drawn)	0.15	.
CN(CC(=O)Nc1ccc(N2CCOCC2)cc1)Cn1nc(Nc2ccccc2F)sc1=S	0.8	.
O=C(Nc1ncc(S(=O)(=O)c2ccc([N+](=O)[O-])cc2)s1)c1cc(-c2ccccc2)nc2ccccc12	.	-1.1
CC(=O)C1=NN(c2ccccc2)C(c2cccc(OCc3ccc(Cl)cc3)c2)N1c1ccc(F)cc1 (stereo not drawn)	.	-0.21
Cc1ccc(S(=O)(=O)NC(=O)NC2CCS(=O)(=O)C2)cc1 (stereo not drawn)	0.45	.
CCOC(=O)c1ccc2nc(C(F)(F)F)nc(N3CCOCC3)c2c1	0.4	0.2
CCN(CC)C(=O)n1cnc2cc(C)c(C)cc21	-0.1	0.3
CO/N=C(/CN1CCN(c2ccccc2F)CC1)c1ccc(Cl)cc1	.	-0.22
CCCn1c(NC(=O)NCc2ccccc2)c2ccccc2nc1=O	-0.25	.
CCOC(=O)c1ccc(N2N=C(C(F)(F)F)/C(=C/C=C/c3ccco3)C2=O)cc1	-0.45	-0.53
CC(C)CCNS(=O)(=O)Cc1ccccc1	-0.45	0.02
N#CC1=C([S-])N[C@@](O)(c2ccccc2)[C@H]([n+]2cccc3cc(Cl)ccc32)[C@H]1c1ccc(F)cc1	.	5.7
Cc1ccc(-n2nnc3c4c(c(NC5CCCCC5)cc32)C(=O)c2ccccc2C4=O)cc1	.	-0.055
CCOC(=O)N(c1ccccc1)c1ccccc1	.	-0.58
S=c1[nH]nc(Cn2cncn2)o1	-0.95	.
CCN(CC)CCNc1ccc(CO)c2sc3ccccc3c(=O)c12	0.05	-0.23&0.42
CCN(CC)CCCNC(=O)OCC1CCCN(Cc2cc(OC)c(OC)cc2Br)C1 (stereo not drawn)	.	-0.1
O=C(O)c1ccccc1CSc1nc2ccccc2[nH]1	0.6	.
Cc1ccccc1-c1nnc(NC(=O)c2ccccc2Cl)s1	1.2	-0.35
COc1cc(/C=C2\N=C(c3c(-c4ccccc4)noc3C)OC2=O)cc(OC)c1OC	.	-0.26

Complete entries as entered above:
COc1cc(NC(=O)c2cc([N+](=O)[O-])ccc2N2CCCCCC2)c2ncccc2c1 as listed: AID504770: .; CapD inh: -0.33
CCOC(=O)c1cnc2cc(C(F)(F)F)ccc2c1N(C)Cc1ccccc1 as listed: AID504770: 0.3; CapD inh: 0.11
O=C1C=CC(=O)c2c(Cl)ccc(Cl)c21 as listed: AID504770: -2*; CapD inh: -0.76

(next part)
structure	AID504770	CapD inh
CC(C)(C)c1ccc(-c2cc(NS(=O)(=O)c3ccccc3)n[nH]2)cc1	.	0.43
Cc1noc(C)c1COc1ccc(C(=O)OC2CCOC2=O)cc1 (stereo not drawn)	0.25	.
Cc1ccccc1NC(=O)CC(=O)Nc1ccccc1C	-0.75	.
CCc1ccn2cc(-c3ccc4c(c3)OCO4)nc2c1	-0.45	110
CCn1c(-c2ccco2)nn(CN(C)CC(=O)Nc2ccc(F)c(F)c2F)c1=S	0.6	.
CCC1=Nc2cc(C(=O)NCc3ccco3)ccc2Sc2ccccc21	-0.45	0.085
Cc1ccc(NC(=O)CCOc2ccccc2)cc1	-0.4	0.36
CCc1ccc(N=C2NC(=O)CS2)cc1	-0.55	.
COc1ccc(-c2cn3cc(I)ccc3n2)cc1	.	0.14
CC(C)c1cc(C(=O)O)c2cnn(C(C)C)c2n1	0	.
CC(=O)O[C@H]1C[C@@]2(C)[C@@H](C[C@@H](O)[C@H]3[C@@]4(C)CC[C@@H](O)[C@@H](C)[C@@H]4CC[C@@]32C)/C1=C(\CCC=C(C)C)C(=O)O	.	-0.33
CSc1ncc(S(C)(=O)=O)c(-c2ccc(C(F)(F)F)cc2)n1	.	0.24
CCCSc1ncc(Cl)c(C(=O)Nc2ccc(S(=O)(=O)Nc3nccs3)cc2)n1	-0.35	-1.6

Assay outcomes as filed in PubChem.
